rRNA inh HTS: inhibitors of bacterial rRNA selective over humanized ribosomes. E. coli WT GFP vs humanized-ribosome RFP mutants, fluorescence, 24 h; active compounds read low; DMSO median 0, no signal -100. GFP signal change (wild-type ribosome), % (no concentration beside the values). 350,000 tested, 1.6% active. AID 720706;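 active means significant combined selectivity score with lowered wild-type GFP, culture density cut under 30%, mutant RFP and density less affected; inactive means any of these conditions unmet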; further: one replicate is shown; some compounds called inactive have numbers as strong as hits
FGF22 binding: binders of recombinant human FGF22 by thermal shift | Q9HCT0 | calls only at 9.99 µM | 340,000 tested, 1.5% active | SYPRO orange fluorescence; percent of sucrose octasulfate shift, DMSO zero;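 active means melting point raised past a set limit in the mean and every replicate; three in four hits are not shown here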
Target sequence (Q9HCT0 whole entry, looked up): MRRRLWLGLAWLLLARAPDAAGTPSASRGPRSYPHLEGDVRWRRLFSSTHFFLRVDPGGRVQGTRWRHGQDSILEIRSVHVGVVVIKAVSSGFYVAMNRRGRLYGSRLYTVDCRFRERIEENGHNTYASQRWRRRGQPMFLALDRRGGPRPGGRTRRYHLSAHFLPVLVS
rRNA inh HTS OD600: second read-out of rRNA inh HTS, no call of its own (marks repeat the call); OD600 change, %; measured here: OD600 growth;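 optical density of the mix in the first replicate; 0 = DMSO median and -100 = no signal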
rRNA inh HTS RFP: further read-out of rRNA inh HTS, marked with its call; RFP signal change, %; measured here: RFP humanized mutant strains;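 first replicate; 0 = DMSO median and -100 = no signal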
Numbers without * were called inactive; i = inactive.

No.	rRNA inh HTS	rRNA inh HTS OD600	structure	rRNA inh HTS RFP	FGF22 binding
1	5	0	C[C@@H]1CN([C@@H](C)CO)S(=O)(=O)c2ccc(C#CC3(O)CCCC3)cc2O[C@@H]1CN(C)C	-1.8	i
2	-2	-2	CCCNC(=O)Nc1ccc2c(c1)OC[C@H](C)N(Cc1cncnc1)C[C@@H](C)[C@@H](OC)CN(C)C2=O	-2.9	i
3	2	-1	O=C(C[C@@H]1CC[C@@H]2[C@H](COC[C@@H](O)CN2C(=O)c2ccccc2F)O1)NCc1ccccc1	5.2	i
4	-6	-8	C[C@H]1CN([C@@H](C)CO)C(=O)c2cccc(NC(=O)C3CCCCC3)c2O[C@@H]1CN(C)CC1CC1	1.8	i
5	0	8	CN1CCN(C(=O)C[C@@H]2CC[C@H]3[C@@H](COC[C@@H](O)CN3C(=O)Nc3ccc(F)cc3)O2)CC1	-0.6	i
6	-1	3	C[C@H](CO)N1C[C@H](C)[C@@H](CN(C)C(=O)CC2CC2)Oc2cc(-c3ccncc3)ccc2S1(=O)=O	-4.2	i
7	2	3	C[C@H]1CN([C@@H](C)CO)C(=O)c2cccc(NS(C)(=O)=O)c2O[C@H]1CN(C)Cc1ccc(C(=O)O)cc1	-0.3	i
8	1	7	C[C@@H]1CN([C@@H](C)CO)C(=O)c2cc(NC(=O)Nc3ccc(F)cc3)ccc2O[C@@H](C)CCCCO[C@@H]1CN(C)S(=O)(=O)c1ccc(F)cc1	-4.4	i
9	-12	-17	COC(=O)C[C@H]1CC[C@H]2[C@H](COc3ccc(NC(=O)Nc4ccc(C#N)cc4)cc3C(=O)N2C)O1	-1.0	i
10	2	2	O=C(NCc1ccc2c(c1)OCO2)[C@H]1[C@H](CO)[C@H]2Cn3c(cccc3=O)[C@@H]1N2Cc1ccccc1	0.3	i
11	-1	3	Cc1noc(C)c1S(=O)(=O)Nc1ccc2c(c1)C(=O)N([C@@H](C)CO)C[C@@H](C)[C@@H](CN(C)C(=O)Nc1ccc3c(c1)OCO3)O2	2.2	i
12	-2	-19	C/C=C/c1ccc2c(c1)O[C@H](CN(C)C(=O)NC1CCCCC1)[C@H](C)CN([C@H](C)CO)S2(=O)=O	-1.1	i
13	2	11	CC(C)NC(=O)N(C)C[C@H]1Oc2ccc(NS(=O)(=O)c3ccc(F)cc3)cc2CC(=O)N([C@H](C)CO)C[C@H]1C	0.1	i
14	-1	1	O=C(N[C@H]1CC[C@H](CC(=O)N2CCCCC2)O[C@H]1CO)c1cccc(F)c1	-2.2	i
15	4	5	CCNC(=O)C[C@@H]1C=C[C@@H](NC(=O)C2CCC2)[C@H](CO)O1	-1.4	i
16	2	-4	COc1ccc(NC(=O)Nc2ccc3c(c2)C(=O)N([C@H](C)CO)C[C@@H](C)[C@H](CN(C)Cc2ccc(C(F)(F)F)cc2)OCCCC[C@H](C)O3)cc1	13	i
17	-2	1	CO[C@H]1CN(C)C(=O)c2ccc(NC(=O)C3CCCC3)cc2OC[C@@H](C)N(C(=O)CC2CC2)C[C@H]1C	-2.1	i
18	1	2	COc1ccc(S(=O)(=O)Nc2ccc3c(c2)OC[C@H](C)NC[C@@H](C)[C@@H](OC)CN(C)C3=O)cc1	-1.3	i
19	-2	-4	COc1cccc(-c2ccc3n(c2=O)C[C@H]2[C@H](CO)[C@@H](C(=O)NC4CCCC4)N[C@@H]32)c1	-0.4	i
20	26	27	Cc1ccc(S(=O)(=O)NC(=O)ON=Cc2ccc3c(c2)OCO3)cc1	-2.1	i
21	-5	-5	C[C@@H]1CN([C@@H](C)CO)C(=O)c2cc(NC(=O)CCC(F)(F)F)ccc2O[C@@H](C)CCCCO[C@@H]1CN(C)C(=O)Nc1ccc(F)cc1	-2.3	i
22	-27	-36	Cc1ccc(S(=O)(=O)Nc2ccc3c(c2)C(=O)N([C@@H](C)CO)C[C@H](C)[C@H](CN(C)CC2CCCCC2)OCCCC[C@H](C)O3)cc1	-5.6	i
23	1	-3	C[C@@H]1CN([C@@H](C)CO)C(=O)Cc2cc(NC(=O)Cn3cnnn3)ccc2O[C@@H]1CN(C)S(=O)(=O)c1ccc(Cl)cc1	-1.3	i
24	5	-2	O=C(C[C@@H]1C[C@@H]2c3cc(NC(=O)NC4CCCC4)ccc3O[C@@H]2[C@H](CO)O1)NCc1ccc(Oc2ccccc2)cc1	-0.3	i
25	4	-3	COc1cccc(C#Cc2ccc([C@@H]3[C@@H](C#N)N(C(=O)C4CCCCC4)[C@H]3CO)cc2)c1	-0.1	i
26	-56	-75	O=C(C[C@H]1CC[C@H]2[C@@H](COC[C@@H](O)CN2C(=O)Nc2ccc(Cl)c(Cl)c2)O1)NCc1ccc(F)cc1	-17	i
27	0	-3	C[C@@H]1CN([C@H](C)CO)C(=O)Cc2cc(NC(=O)C3CCCCC3)ccc2O[C@@H]1CN(C)Cc1ccc2c(c1)OCO2	0.9	i
28	3	3	CNC[C@H]1Oc2ccc(NC(=O)CCC(F)(F)F)cc2C(=O)N([C@@H](C)CO)C[C@@H]1C	-2.0	i
29	1	-3	Cc1noc(C)c1S(=O)(=O)Nc1ccc2c(c1)CC(=O)N([C@@H](C)CO)C[C@@H](C)[C@@H](CN(C)S(=O)(=O)c1ccc(F)cc1)O2	-0.2	i
30	2	7	COc1ccc(NC(=O)N(C)C[C@H]2Oc3ccc(NS(=O)(=O)c4ccc(Cl)cc4)cc3CC(=O)N([C@H](C)CO)C[C@@H]2C)cc1	-2.1	i
31	-3	-8	C[C@H](CO)N1C[C@H](C)[C@H](CN(C)Cc2ccc3c(c2)OCO3)Oc2ccc(NS(=O)(=O)c3ccccc3)cc2CC1=O	5.6	i
32	6	-14	N#C[C@H]1[C@H](c2ccc(C#Cc3ccc(F)cc3)cc2)[C@@H](CO)N1C(=O)C1CCC1	0.3	i
33	6	6	C[C@H]1CN([C@@H](C)CO)C(=O)Cc2cc(NC(=O)CCCN(C)C)ccc2O[C@@H]1CN(C)S(=O)(=O)c1ccccc1	-1.5	i
34	1	5	C[C@@H]1CN([C@H](C)CO)C(=O)c2cc(C#CC3CC3)cnc2O[C@H]1CN(C)C(=O)CC1CC1	-4.4	i
35	1	4	O=C(C[C@H]1C[C@@H]2c3cc(NC(=O)Cc4ccncc4)ccc3O[C@@H]2[C@@H](CO)O1)NCc1ccc2c(c1)OCO2	0.5	i
36	-37	-61	O=C(NC1CCCC1)N1CCCCN2[C@@H](CO)[C@H](c3ccc(-c4ccccc4)cc3)[C@@H]2C1	11	i
37	6	10	COc1ccc(C#Cc2ccc([C@H]3[C@@H](CO)N4CCCCN(C(=O)Nc5ccccc5F)C[C@@H]34)cc2)cc1	1.4	i
38	2	6	COc1ccc(-c2ccc3c(n2)CCCN3S(=O)(=O)c2cccs2)cc1	-1.1	i
39	-2	-3	Cc1ccc(S(=O)(=O)Nc2cccc3c2O[C@H](CN(C)S(=O)(=O)c2c(C)noc2C)[C@@H](C)CN([C@H](C)CO)C3=O)cc1	0.5	i
40	-29	-49	CC(=O)C1=C(C)N(Cc2ccc(F)cc2)C(=S)NC1c1cccc(Cl)c1 (stereo not drawn)	-5.0	i
41	4	4	C/C=C/c1ccc([C@@H]2[C@H](CO)N(C(C)=O)[C@H]2CNC(=O)CC2CC2)cc1	2.8	i
42	2	-2	C[C@@H]1CCCCO[C@H](CN(C)C)[C@@H](C)CN([C@H](C)CO)C(=O)c2cc(NS(=O)(=O)c3ccc(Cl)cc3)ccc2O1	-0.8	i
43	0	-2	COc1cccc(CNC(=O)C[C@@H]2C=C[C@@H](NC(=O)C3CC3)[C@H](CO)O2)c1	-1.1	i
44	0	5	CC(C)NC(=O)N(C)C[C@H]1Oc2ccc(NC(=O)Nc3cccc4ccccc34)cc2CC(=O)N([C@H](C)CO)C[C@@H]1C	-0.8	i
45	2	5	Cc1cccc(S(=O)(=O)N[C@H]2CC[C@@H](CCNC(=O)CCN3CCCCC3)O[C@@H]2CO)c1	0.3	i
46	1	-5	CNC[C@@H]1OCCCC[C@H](C)Oc2ccc(NS(=O)(=O)c3c(C)noc3C)cc2C(=O)N([C@@H](C)CO)C[C@@H]1C	-4.0	i
47	-5	-9	C[C@H]1CN([C@@H](C)CO)C(=O)c2cccc(NC(=O)Nc3cccc4ccccc34)c2O[C@H]1CN(C)Cc1ccccc1	1.1	i
48	6	14	CNC[C@H]1Oc2ncc(-c3cncnc3)cc2C(=O)N([C@H](C)CO)C[C@@H]1C	-1.6	i
49	-2	-1	COc1ccc2c3c([nH]c2c1)[C@H](CO)N(C(=O)C1CC1)CC31CCN(C(=O)NC(C)C)CC1	-0.9	i
50	-1	-3	O=C(C[C@H]1C=C[C@H](NC(=O)C2CCC2)[C@H](CO)O1)NCc1ccccc1Cl	1.9	i
51	4	0	CCCNC(=O)N(C)C[C@H]1Oc2cc(C#C[C@H](C)O)ccc2S(=O)(=O)N([C@H](C)CO)C[C@@H]1C	-1.1	i
52	2	0	CO[C@@H]1CN(C)C(=O)c2cc(NC(=O)C3CCC3)ccc2OC[C@H](C)N(C(=O)CN(C)C)C[C@H]1C	0.2	i
53	5	8	CCS(=O)(=O)Nc1ccc2c(c1)C(=O)N(C)C[C@H](OC)[C@H](C)CN[C@@H](C)CO2	-1.0	i
54	-4	-10	C[C@@H]1CN([C@H](C)CO)C(=O)c2cc(C3=CCCCC3)cnc2O[C@H]1CN(C)C(=O)c1ccc(F)cc1	0.5	i
55	5	-40	C/C=C/c1ccc([C@@H]2[C@@H](CO)N3CCCCN(S(=O)(=O)c4cccs4)C[C@@H]23)cc1	-5.7	i
56	1	3	CC(C)c1cn(CC[C@H]2CC[C@H](NC(=O)C3CCCC3)[C@@H](CO)O2)nn1	-0.3	i
57	4	14	COc1ccc(CN(C)C[C@H]2Oc3c(NC(=O)NC(C)C)cccc3C(=O)N([C@H](C)CO)C[C@H]2C)cc1	2.9	i
58	2	7	Cc1noc(C)c1NC(=O)Nc1cccc2c1O[C@H](CN(C)C(=O)Nc1c(C)noc1C)[C@@H](C)CN([C@H](C)CO)C2=O	-3.1	i
59	-2	1	C[C@@H]1CN([C@@H](C)CO)C(=O)Cc2cc(NC(=O)Nc3ccc(F)cc3)ccc2O[C@H]1CN(C)S(=O)(=O)c1ccc(Cl)cc1	0.2	i
60	-1	1	O=C(Nc1ccccc1)[C@H]1[C@H](CO)[C@H]2Cn3c(ccc(C4=CCCC4)c3=O)[C@H]2N1Cc1cocn1	3.7	i

Carrying on:
No.	rRNA inh HTS	rRNA inh HTS OD600	structure	rRNA inh HTS RFP	FGF22 binding
61	2	-3	CCC(=O)Nc1ccc2c(c1)OC[C@@H](C)N(C(=O)C1CCC1)C[C@@H](C)[C@@H](OC)CN(C)C2=O	-2.1	i
62	-1	1	C[C@@H]1CN([C@@H](C)CO)C(=O)c2cc(NC(=O)c3ccncc3)ccc2O[C@@H](C)CCCCO[C@H]1CN(C)Cc1ccc2c(c1)OCO2	-0.1	i
63	1	10	C[C@H](CO)N1C[C@H](C)[C@H](CN(C)S(=O)(=O)c2ccccc2)Oc2ccc(NC(=O)Cn3cnnn3)cc2CC1=O	0.7	i
64	-9	-17	O=C(NC1Cc2ccccc2C1)[C@@H]1[C@@H](CO)[C@@H]2Cn3c(ccc(C4=CCCCC4)c3=O)[C@H]1N2CC1CC1	11	i
65	-7	-11	CCCC#Cc1ccc2c(c1)O[C@H](CN(C)Cc1cncnc1)[C@H](C)CN([C@@H](C)CO)S2(=O)=O	0.7	i
66	2	3	CNC[C@H]1Oc2c(NC(=O)Nc3ccccc3)cccc2C(=O)N([C@H](C)CO)C[C@@H]1C	-2.2	i
67	4	17	O=C(C[C@H]1CC[C@@H]2[C@H](COC[C@@H](O)CN2C(=O)c2cccnc2)O1)NCC1CC1	17	i

High-throughput results deposited in PubChem by Broad Institute.

Only part of the results is shown, so the mix of outcomes need not match the whole.
